TRPML1 inh = blocks the human TRPML1 channel; TRPML1-inducible cells, Ca2+ dye fluorescence, FDSS; stronger effect = lower value; inhibition of EC80 agonist-evoked calcium signal; activity change, negative = inhibition, % (no concentration beside the values); 0.02% of 390,000 active; in the data active means activity change below about -50%; inconclusive means about -30% to -50%; inactive means above about -30%;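 also: stimulus is agonist 54-4 at its EC80 concentration; % is scaled to controls: 0 for no effect and ±100 for the full control effect; compound concentration not given in the record; the text of the record puts the active cut at -80%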
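Calcium fluorescence in TRPML1-DL cells induced overnight with Tet: a 110 s read after compound pin addition, then a 110 s antagonist read after challenge with 54-4 at 4 uM final (EC80).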
CtBP-E1A inh = CtBP/E1A binding inhibition. AlphaScreen GST-E1A/His-CtBP binding, 1536-well; stronger effect = lower value; control for the full effect not named in the record. activity change, % (no concentration beside the values). 0.49% of 340,000 active; in the data active means activity change below about -65%; inconclusive means about -30% to -65%; inactive means above about -30%; also: % is scaled to controls: 0 for no effect and ±100 for the full control effect; compound concentration not given in the record
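Protein mix (5X: 125 nM each GST-E1A, His-CtBP) was incubated with pinned compound 2 h at 37 deg C in dark, in 50 mM Tris pH 8.0 buffer with 300 mM NaCl. Glutathione donor and nickel acceptor beads followed; AlphaScreen signal read after 1 h.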
D2 PAM = positive allosteric modulators of human D2 dopamine receptor; P14416; DiscoveRx D2 beta-arrestin cells, luminescence, 90 min; 100% = 57 uM dopamine signal; potentiation, % (test concentration not listed); 0.23% of 360,000 active; active = potentiation of 50% or more; inconclusive = 30% to 50%; inactive = 30% or less;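 also: compound concentration not given in the record; tested on top of an EC20 dose of dopamine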
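PathHunter beta-arrestin assay in DiscoveRx D2 cells. Compounds were added with an EC20 of dopamine (50 nM final) for 90 min at 37 deg C. Luminescence was read 1 h after detection reagent, with 57 uM dopamine as the EC100 control.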
Six1-Eya2 blk = inhibitors of human Six1/Eya2 interaction; Q15475+O00167; AlphaScreen GST-Six1/His-Eya2 binding, biochemical; stronger effect = lower value; control for the full effect not named in the record; activity change, % (concentration not given with the values); 0.56% of 360,000 active; AID 651725; in the data active = activity change below about -65%; inconclusive = about -30% to -65%; inactive = above about -30%; also: % is scaled to controls: 0 for no effect and ±100 for the full control effect
Target sequence (O00167 whole entry, looked up): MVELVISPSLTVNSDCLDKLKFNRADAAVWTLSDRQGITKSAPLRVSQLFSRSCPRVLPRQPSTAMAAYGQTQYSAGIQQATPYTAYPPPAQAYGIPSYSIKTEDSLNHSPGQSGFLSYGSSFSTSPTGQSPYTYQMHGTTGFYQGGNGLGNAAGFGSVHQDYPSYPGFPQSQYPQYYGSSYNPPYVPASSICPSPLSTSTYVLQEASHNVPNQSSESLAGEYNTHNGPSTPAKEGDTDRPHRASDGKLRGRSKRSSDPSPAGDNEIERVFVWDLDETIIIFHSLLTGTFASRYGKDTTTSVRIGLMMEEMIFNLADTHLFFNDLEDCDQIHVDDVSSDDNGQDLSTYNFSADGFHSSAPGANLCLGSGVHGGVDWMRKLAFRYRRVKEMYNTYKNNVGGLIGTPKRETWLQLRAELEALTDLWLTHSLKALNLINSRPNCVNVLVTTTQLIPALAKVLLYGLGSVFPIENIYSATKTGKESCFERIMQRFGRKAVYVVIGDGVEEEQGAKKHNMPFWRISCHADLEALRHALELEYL
Target sequence (Q15475 whole entry, looked up): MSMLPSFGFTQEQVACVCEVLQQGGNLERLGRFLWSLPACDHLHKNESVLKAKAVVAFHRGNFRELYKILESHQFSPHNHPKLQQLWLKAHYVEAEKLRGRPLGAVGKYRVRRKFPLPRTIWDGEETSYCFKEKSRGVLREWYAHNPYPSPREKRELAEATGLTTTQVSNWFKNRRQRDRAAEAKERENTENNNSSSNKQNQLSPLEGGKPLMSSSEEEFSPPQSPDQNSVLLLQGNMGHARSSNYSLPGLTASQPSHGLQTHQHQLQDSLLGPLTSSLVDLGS
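Homogeneous AlphaScreen proximity assay pairing GST-Six1 with His-tagged Eya2 (added as 5X mix: 250 nM and 500 nM) in 50 mM Tris pH 8.0, 300 mM NaCl, 1 mM TCEP. Glutathione donor and nickel acceptor beads; 1 h, 37 °C, dark.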
TRPML1 ag = agonists of human TRPML1 channel; Q9GZU1; TRPML1-expressing cells, Ca2+ dye fluorescence, FDSS; host cell line not named in the record; reference of the full effect not given here; activation, % (no concentration beside the values); 0.12% of 410,000 active; in the data active = activation above about 50%; inconclusive = about 30% to 50%; inactive = below about 30%; also: 0% is about no effect; the text of the record puts the active cut at 80%
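Agonist activity was taken from a 110 s kinetic Ca2+ dye read on the FDSS after pinning compounds onto TRPML1-DL cells. The cells were seeded at 1,500/well with Tet inducer, incubated about 16 h, then dye-loaded at room temperature.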
TRPV1 PAM = human TRPV1 potentiation; potentiation, % at 8.33 µM; Q8NER1; TRPV1-expressing cells, Fluo-8 calcium influx, capsaicin EC20 potentiation; host cell line not named in the record; control for the full effect not named in the record; 0.02% of 320,000 active; active means potentiation above 80%; inconclusive means 30% to 80%; inactive means below 30%; also: 0% is about no effect
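TRPV1-expressing cells were cultured overnight at 35.5C and loaded with Fluo-8 calcium dye for 40 to 90 min at room temperature. After a 10 s baseline, compound was added and calcium influx was read kinetically for 3 min (ex 480/em 520 nm).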
* = called active by the depositor; ? = inconclusive; . = not tested or not shown; & = joins results of further samples. The order is random; any-hit rate near 0.95%.

SMILES	TRPML1 inh	CtBP-E1A inh	D2 PAM	Six1-Eya2 blk	TRPML1 ag	TRPV1 PAM
CCSc1nnc(NC(=O)[C@@H](NC(=O)c2ccc(C(C)(C)C)cc2)C(C)C)s1	8	-18	-33	5	0.7	23
Fc1ccc(F)c(NC2=NCCCCC2)c1	0	2	3	-4	0.1	-4
CSc1ccccc1Nc1ncnc(N)n1	-9	4	5	6	0.1	12
Cc1ccc(C(=O)OCC(=O)NCCc2ccc(S(N)(=O)=O)cc2)o1	-13	2	1	2	0.0	.
Cc1coc2c(C)c3oc(=O)c(CCC(=O)NCCCn4ccnc4)c(C)c3cc12	.	?	-66	?	.	-10
CCN(CC)CCNC(=O)c1ccc(NC(=O)c2ccc(S(=O)(=O)N3CCCCCC3)cc2)cc1	-14	4	-40	2	-0.7	?
O=C(COc1cc(F)ccc1[N+](=O)[O-])Nc1ccc(N2CCCCC2)cc1	15	-28	-27	?	0.6	1
C[C@H]1CCC[C@]2(CC(=O)c3cc(F)ccc3O2)C1	4	13	0	14	0.3	23
CCCC(=O)N(Cc1cc(=O)[nH]c2ccccc12)c1ccccc1OC	-3	1	-6	-5	-0.3	-18
Cc1csc(NC(=O)c2cccc([N+](=O)[O-])c2C(=O)O)n1	-12	.	-22	8	0.2	-5
CC(Oc1ccccc1)C(=O)NC1C(=O)N2C1SC(C)(C)C2C(=O)O (stereo not given)	-19	-25	0	-10	0.6	2
CCOc1ccc(CNCc2ccccc2Cl)cc1	0	2	0	2	1.9	-18
Cc1cc(C)c(OCCCn2ccnc2)c(C)c1	15	2	-3	2	1.0	22
CCCn1c(SCC(=O)Nc2ccc(OC)cc2)nnc1-c1ccncc1	-8	-1	15	4	0.4	12
O=C(Cn1nnc(-c2cccc(C(F)(F)F)c2)n1)NC1CCCC1	-17	5	-3	2	-0.6	-14
CCOc1ccc(OCC(=O)OCC(=O)N(CC(C)C)c2c(N)n(Cc3ccccc3)c(=O)[nH]c2=O)cc1	-10	9	1	3	0.3	6
N#CCc1nc2n(n1)Cc1ccccc1-2	17	-11	9	-3	-0.1	0
CCN(CC(=O)NCc1ccc(Cl)cc1)C(=O)COc1ccc(Cl)cc1Br	-8	3	-18	0	-0.3	10
Cc1ccc(C(=O)NCc2cccs2)cc1S(=O)(=O)N1CCCCC1	-2	-5	-2	2	0.7	-9
CC/C(=N\NC(=O)CSCc1ccc(Cl)cc1)c1ccc2c(c1)OCCO2	18	-2	7	-3	0.9	1
O=C(CN1C(=O)NC2(CCCCC2)C1=O)NCCc1ccccc1	9	.	-4	-1	-0.5	.
O=C(NCc1ccccc1)c1ccc(=O)oc1	3	14	-1	15	0.8	0
CN(C)c1ccc(NC(=O)CC(NCc2ccccn2)C(=O)O)cc1 (stereo not given)	0	7	-7	-92*	-0.1	11
CCOC(=O)c1cnn(-c2nc3c(C)cccc3s2)c1C	-5	3	-9	3	-0.7	-1
Cc1ccc(S(=O)(=O)NC2(C(F)(F)F)NC(=O)N(c3ccccc3F)C2=O)cc1 (stereo not given)	-10	17	-9	7	-1.5	12
O=C(O)CCC(=O)Nc1ccccc1C(=O)NCc1ccco1	-9	0	-11	-3	1.2	12
CC(=O)Cc1nsc(NC(=O)c2cn(-c3ccccc3)nc2-c2ccc(Br)cc2)n1	-16	-4	-6	10	-0.3	-3
CCOC(=O)[C@H]1[C@H]2COc3ccc(Br)cc3[C@@H]2N2C(=O)CN(Cc3ccc(F)cc3)C(=O)[C@@]12C	27	-10	-6	-12	0.6	-9
CCOc1ccc(/C(=N\O)C(C)NO)cc1 (stereo not given)	7	-8	5	-2	-0.4	-18
c1ccc2oc(C3=NNC(=NC4CC4)SC3)cc2c1	5	-25	-21	-15	4.3	5
O=C(NCCC1=CCCCC1)C(=O)c1c[nH]c2ccccc12	-18	-10	-9	-9	0.8	-1
O=C(Nc1ccccc1)c1cc(C2CCCCN2S(=O)(=O)c2cccs2)on1 (stereo not given)	.	0	-9	7	-0.8	.
CCN1C(=O)C(O)(CC(=O)c2ccccn2)c2ccccc21 (stereo not given)	-19	1	-25	5	0.2	5
CCCc1nc(N2CCOCC2)c(C#N)c2c1CCCC2	-4	15	-2	14	0.5	-6
COC(=O)c1cn[nH]c1NC(=S)Nc1ccc(C)cc1Cl	-4	4	18	1	1.2	4
CC(C)(C)CC(=O)Nc1cc2c3c(c1)CCN3C(=O)CC2	-4	.	-6	9	0.1	7
Cc1cnc(CN2CCc3c([nH]c4ccccc34)C2C2CCCCC2)[nH]1 (stereo not given)	3	0	-17	-7	0.6	11
CC1(C)CC(=O)C2=C(C1)c1c(ccc3ccccc13)NC2c1ccc(C(=O)O)cc1 (stereo not given)	-11	3	-6	2	1.2	2
O=S(=O)(c1ccc(S(=O)(=O)N(Cc2ccccc2)Cc2ccco2)cc1)N1CCCC1	-1	10	5	-1	0.5	.
CCC(C)c1ccccc1NC(=S)NC(=O)c1ccco1 (stereo not given)	-4	-10	-2	-9	0.7	-15

Ordered by SMILES length (rising): 14 of the compounds above.
SMILES	TRPML1 inh	CtBP-E1A inh	D2 PAM	Six1-Eya2 blk	TRPML1 ag	TRPV1 PAM
CCOc1ccc(/C(=N\O)C(C)NO)cc1 (stereo not given)	7	-8	5	-2	-0.4	-18
CCCc1nc(N2CCOCC2)c(C#N)c2c1CCCC2	-4	15	-2	14	0.5	-6
c1ccc2oc(C3=NNC(=NC4CC4)SC3)cc2c1	5	-25	-21	-15	4.3	5
CCOC(=O)c1cnn(-c2nc3c(C)cccc3s2)c1C	-5	3	-9	3	-0.7	-1
O=C(O)CCC(=O)Nc1ccccc1C(=O)NCc1ccco1	-9	0	-11	-3	1.2	12
COC(=O)c1cn[nH]c1NC(=S)Nc1ccc(C)cc1Cl	-4	4	18	1	1.2	4
CCN1C(=O)C(O)(CC(=O)c2ccccn2)c2ccccc21 (stereo not given)	-19	1	-25	5	0.2	5
O=C(CN1C(=O)NC2(CCCCC2)C1=O)NCCc1ccccc1	9	.	-4	-1	-0.5	.
CN(C)c1ccc(NC(=O)CC(NCc2ccccn2)C(=O)O)cc1 (stereo not given)	0	7	-7	-92*	-0.1	11
Cc1cnc(CN2CCc3c([nH]c4ccccc34)C2C2CCCCC2)[nH]1 (stereo not given)	3	0	-17	-7	0.6	11
O=C(Nc1ccccc1)c1cc(C2CCCCN2S(=O)(=O)c2cccs2)on1 (stereo not given)	.	0	-9	7	-0.8	.
CC(=O)Cc1nsc(NC(=O)c2cn(-c3ccccc3)nc2-c2ccc(Br)cc2)n1	-16	-4	-6	10	-0.3	-3
Cc1ccc(S(=O)(=O)NC2(C(F)(F)F)NC(=O)N(c3ccccc3F)C2=O)cc1 (stereo not given)	-10	17	-9	7	-1.5	12
CCOC(=O)[C@H]1[C@H]2COc3ccc(Br)cc3[C@@H]2N2C(=O)CN(Cc3ccc(F)cc3)C(=O)[C@@]12C	27	-10	-6	-12	0.6	-9

Following part:
SMILES	TRPML1 inh	CtBP-E1A inh	D2 PAM	Six1-Eya2 blk	TRPML1 ag	TRPV1 PAM
O=C(CCCl)Nc1cc(SCCO)cc([N+](=O)[O-])c1	34	10	-11	2	-0.9	-7
O=C(CSc1nnc(-c2ccncc2)n1C1CCCCC1)Nc1cccc(O)c1	24	-1	19	4	-0.4	18
Clc1ccc(OCCCn2cncn2)cc1Cl	7	5	-19	1	0.7	-7
O=C1NCCCC2c3c(cc(Br)c(O)c3Br)OC12N1CCOCC1 (stereo not given)	6	-1	13	-1	-0.7	16
Cc1cccc(C2CN(C)CCc3c2cc(O)c(O)c3Cl)c1 (stereo not given)	-4	-10	-16	-4	-1.2	4
CCc1nc2ccc(C(=O)NCCc3ccc(OC)cc3)cc2nc1CC	70	-2	1	-1	1.1	6
CCc1nc2ccccc2c(C(=O)Nc2ccc(C)cc2)c1C	.	.	-3	1	.	-7
CC(=O)c1ccc(N2CCN(c3ccnc4cc(Cl)ccc34)CC2)cc1	20	2	-3	20	1.1	7
O=C(CCC1CCCCC1)NCCS(=O)(=O)N1CCN(c2ccc(F)cc2)CC1	-13	-1	-7	-6	-0.6	-3
Cc1c(CCO)c(=O)n2n1CCCC2	3	12	-2	-1	-0.6	.
CCCC(=O)N(CCN1CCOCC1)c1nc2c(OCC)cccc2s1	-20	.	-1	1	-0.5	5
CCOC(=O)c1c(CC(C)C)csc1/N=C/C1=C(O)CCCC1=O	-13	.	-1	1	2.4	-10
CC(=O)c1cccc(NC(=O)c2ccc(N(Cc3ccccc3C)S(C)(=O)=O)cc2)c1	-1	-4	1	-12	0.3	-6
Cn1cc(Cl)c(C(=O)OCC(=O)Nc2ccccc2)n1	-17	-6	-3	2	-0.1	-5
CCc1cccc(NC(=O)CN(C)S(=O)(=O)c2cccc3nsnc23)c1	-1	0	-13	-8	-0.3	11
O=C1NC[C@@H](CCCCN2CCN(CCc3ccc(O)cc3)C(=O)C2=O)N(Cc2ccccc2)C1=O	.	21	.	13	-0.4	.
CCCCOC(=O)CSc1nc2ccccc2o1	-1	29	-5	27	-0.2	-25
O=C(CCn1c(=O)c2cccn2c2ccc(F)cc21)NCCc1ccccc1	?	0	-6	3	-1.1&0.1	16
Cc1nnc(NC(=O)c2oc3c(ccc4ccccc43)c2C)s1	10	-6	0	4	-0.3	3
Cc1nn2c(nc(N3CCOCC3)c3ccccc32)c1C=C(C#N)C#N	-1	0	0	14	-0.5	3

Overlap with the part before: two entries, then new ones.
SMILES	TRPML1 inh	CtBP-E1A inh	D2 PAM	Six1-Eya2 blk	TRPML1 ag	TRPV1 PAM
Cc1nnc(NC(=O)c2oc3c(ccc4ccccc43)c2C)s1	10	-6	0	4	-0.3	3
Cc1nn2c(nc(N3CCOCC3)c3ccccc32)c1C=C(C#N)C#N	-1	0	0	14	-0.5	3
CCC1CCCCN1CCCNC(=O)Cn1c(=O)c2cccn2c2cccnc21 (stereo not given)	35	0	-25	-12	-1.3	3
CCCn1c(N)c(C(=O)CN2CCc3ccccc3C2)c(=O)n(C)c1=O	8	-1	-10	-2	-0.9	0
O=C(OCC(=O)N1CCOCC1)c1cc(S(=O)(=O)N2CCOCC2)c(Cl)cc1Cl	-6	-14	-2	7	1.2	0
CCn1c(=O)c(C(=O)Nn2c(C)nc3ccccc3c2=O)c(O)c2ccccc21	-2	-2	-12	-16	1.0	1
COc1ccccc1CCn1cc(C#N)c(=O)[nH]c1=O	-16	6	-3	8	2.1	-3
Cn1c(=O)c2[nH]cnc2n(C)c1=O	18	1	-13	-4	-0.3&-0.4	-7
C[C@H](CO)N1C[C@H](C)[C@@H](CN(C)Cc2ccncc2)Oc2c(NS(=O)(=O)c3ccc(F)cc3)cccc2C1=O	1	0	.	-1	-0.7	.
Cc1ccc(C(=O)Nc2ccccc2C(=O)NCc2ccco2)cc1S(=O)(=O)N1CCCCC1	18	-8	2	-6	2.4	7
CCCCOC(=O)c1ccc(NC(=O)C(CCS(C)(=O)=O)NC(C)=O)cc1 (stereo not given)	-8	-1	-12	12	0.4	5
CCC(C)NC(=O)Cn1c(=O)n(CCCC(=O)NCc2ccccc2Cl)c(=O)c2ccccc21 (stereo not given)	1	1	2	0	-1.0	6
